HNF4A DNA FP = change in binding of human HNF4 alpha to DNA; P41235; HNF4a-FITC DNA binding, fluorescence polarization, 1 h; activity change, % at 10 µM; 360,000 tested, 0.3% active; in the data active = activity change above about 30%, passing the limit was not always enough;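 note: controls were the assay level and a saturating level of protein; the project sought stronger binding though the title names inhibitors; some compounds called inactive have numbers as strong as hits; positive values seem to mean higher polarization but the record does not say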
FGF22 binding = shifts melting point of recombinant human FGF22; 340,000 tested, 1.5% active; calls only at 9.99 µM; AID 651658; recombinant FGF22 thermal shift, SYPRO orange fluorescence; percent of sucrose octasulfate shift, DMSO zero;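 active = melting point raised past a set limit in the mean and every replicate; inconclusive = no clear call; three in four hits are not shown here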
Target sequence (Q9HCT0 whole entry, looked up): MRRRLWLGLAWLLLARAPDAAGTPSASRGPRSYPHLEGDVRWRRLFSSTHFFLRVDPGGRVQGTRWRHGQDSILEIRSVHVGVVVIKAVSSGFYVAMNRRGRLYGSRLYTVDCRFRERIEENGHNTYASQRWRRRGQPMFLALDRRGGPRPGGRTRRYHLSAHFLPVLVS
UCH37 DUB inh = blocks the human deubiquitinase UCH37; Q9Y5K5; purified proteasome/UCH37, Ub-AMC cleavage fluorescence; inhibition, % (test concentration not listed); 330,000 tested, 0.33% active;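 active = mean of two replicates above 20%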;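 note: 0% = compound-free wells with enzyme and 100% = wells lacking proteasome; stock transfer was 100 nL into about 20 µL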
Target sequence (Q9Y5K5 whole entry, looked up): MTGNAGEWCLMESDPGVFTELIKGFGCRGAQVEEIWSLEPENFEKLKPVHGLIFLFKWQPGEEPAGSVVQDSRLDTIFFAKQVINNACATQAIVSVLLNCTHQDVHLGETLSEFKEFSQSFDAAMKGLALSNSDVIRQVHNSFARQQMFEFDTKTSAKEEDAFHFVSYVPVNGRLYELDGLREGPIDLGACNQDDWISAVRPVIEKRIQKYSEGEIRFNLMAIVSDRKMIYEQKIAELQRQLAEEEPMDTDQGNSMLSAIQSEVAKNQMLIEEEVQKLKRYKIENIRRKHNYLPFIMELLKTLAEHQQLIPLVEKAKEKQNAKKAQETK
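system = Proteasome-associated human UCH37 deubiquitinase | amount = 0.15 nM proteasome as dispensed | medium = pH 7.4 Tris-HCl (50 mM) with ovalbumin, ATP-MgCl2, DTT | incubation = 30 min preincubation with enzyme, 25 min cleavage at room temperature | detection = AMC fluorescence 355/460 nm | read-out basis = percent inhibition | controls = no-proteasome and no-compound wells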
Ecoli growth = blocks Escherichia coli growth; 330,000 tested, 0.21% active; OD600 absorbance (concentration not given with the values); AID 1053175; OD600, 23 h; hits give low values;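 active = OD600 absorbance below the run mean of sample wells minus 3.6 SD, in any replicate, cut at about 0.56 in these data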;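 note: stock transfer was 300 nL into about 60 µL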
RanGTP-Imp inh = disruptors of Ran-importin-beta complex formation – biochemical, FRET, CFP-Ran, YFP-importin-beta, homogeneous, primary screen. inhibition, % (concentration not given with the values). cell-free CFP-Ran/YFP-importin-beta FRET ratio. 300,000 tested, 1.1% active;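 active = most replicates above 15%; inconclusive = exactly half above 15%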;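 note: 0% = DMSO wells and 100% = Ran loaded with GDP instead of GTP; wells of about 40 µL received 100 nL stock; the first replicate is given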
MLL AF4-AF9 inh = MLL-AF4/AF9 protein interaction inhibition | P42568 | AlphaScreen, biotin-AF4 peptide binding to FLAG-AF9 | inhibition, % at 10 µM | 350,000 tested, 0.47% active;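 active = every replicate reaching a set inhibition limit, whatever the replicate mean, cut at about 25% in these data; inconclusive = mean inhibition reaches that limit but some replicates miss it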;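 note: 0% = plate neutral control median and 100% = total signal loss; the record names both 10 and 1 µM as test concentration; the first replicate is given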
Target sequence (P42568 whole entry, looked up): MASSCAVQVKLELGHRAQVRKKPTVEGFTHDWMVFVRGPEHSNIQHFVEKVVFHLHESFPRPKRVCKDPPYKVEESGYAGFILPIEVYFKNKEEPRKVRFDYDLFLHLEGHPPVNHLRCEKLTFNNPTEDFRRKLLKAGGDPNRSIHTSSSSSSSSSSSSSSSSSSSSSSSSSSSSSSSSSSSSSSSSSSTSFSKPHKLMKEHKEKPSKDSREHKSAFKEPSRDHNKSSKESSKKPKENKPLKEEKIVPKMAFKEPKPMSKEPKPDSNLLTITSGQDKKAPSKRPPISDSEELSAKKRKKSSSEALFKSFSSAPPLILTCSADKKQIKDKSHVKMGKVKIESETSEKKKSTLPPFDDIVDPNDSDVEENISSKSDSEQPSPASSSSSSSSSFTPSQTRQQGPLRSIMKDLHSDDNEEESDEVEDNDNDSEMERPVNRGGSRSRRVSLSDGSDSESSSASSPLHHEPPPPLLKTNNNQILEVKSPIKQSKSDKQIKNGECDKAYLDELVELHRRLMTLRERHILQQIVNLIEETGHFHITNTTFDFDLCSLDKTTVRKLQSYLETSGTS
Vif A3G = HIV-1 Vif–A3G interaction blockers – biochemical, TR-FRET, GST-Vif 1-94, biotin-A3G peptide, dose response retest, primary screen (AID 1117319). one-dose inhibition, %; IC50 in µM for titrated hits. 260,000 tested, 0.57% active. TR-FRET GST-Vif / biotin-A3G peptide binding; higher % means a stronger effect; test concentration not given here; strong numbers were not always called active;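 active = above the screen mean plus three standard deviations and confirmed in dose response; inconclusive = results disagree or hit not tested in dose response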;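 note: Vif residues 1-94 fused to GST binding biotinylated APOBEC3G peptide 110-148; 0% = full assay without inhibitor and 100% = GST in place of GST-Vif; retest series ran down from 100 µM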
Numbers without * were called inactive; i = inactive; ? = inconclusive; . = not tested or not shown; + = active, no number; & = joins results of further samples.

Start of the listing, in advance, 3 compounds:
SMILES | HNF4A DNA FP | FGF22 binding | UCH37 DUB inh | Ecoli growth | RanGTP-Imp inh | MLL AF4-AF9 inh | Vif A3G
CCCC/C(=N\O)c1c[nH]c2ccccc12 | -0.6 | . | . | . | -0.1 | . | ?
NC(=O)c1ccc(C(=O)Nc2ccc([As](=O)(O)O)cc2)cc1 | . | i | 1.3 | 0.69 | 2.8 | -1.4 | 0%
C=CCN1C(=O)NC(=O)/C(=C/c2ccc(OC)c(COc3ccc(NC(C)=O)cc3)c2)C1=O | 2.6 | i | 2.4 | 0.66 | -0.5 | -9.1 | 14%

The whole of this part (from the top)
SMILES | HNF4A DNA FP | FGF22 binding | UCH37 DUB inh | Ecoli growth | RanGTP-Imp inh | MLL AF4-AF9 inh | Vif A3G
CCCC/C(=N\O)c1c[nH]c2ccccc12 | -0.6 | . | . | . | -0.1 | . | ?
NC(=O)c1ccc(C(=O)Nc2ccc([As](=O)(O)O)cc2)cc1 | . | i | 1.3 | 0.69 | 2.8 | -1.4 | 0%
C=CCN1C(=O)NC(=O)/C(=C/c2ccc(OC)c(COc3ccc(NC(C)=O)cc3)c2)C1=O | 2.6 | i | 2.4 | 0.66 | -0.5 | -9.1 | 14%
COc1ccccc1-n1c(Cc2ccccc2)nc2ccccc2c1=O | -0.3 | i | 0.7 | 0.65 | 2.1 | -2.2 | .
S=P(N1CCCCCC1)(N1CC1)N1CC1 | -1.8 | i | 0.7 | 0.68 | . | -46 | -3%
CCOc1ccccc1-n1c(O)c(C=NCCCn2ccnc2)c(=O)[nH]c1=O | 5.5 | i | 4.5 | 0.69 | 3.5 | -0.7 | -4%
Cc1nn(C)c(C)c1/C=C1/CC2C3CC=C4CC(O)CCC4(C)C3CCC2(C)C1=O (stereo unspecified) | 1.5 | . | 3.4 | 0.71 | -1.5 | . | 6%
Cn1c(O)c(C=Nc2ccccc2-c2ccccc2)c(=O)n(C)c1=O | 1.4 | i | -5.3 | 0.64 | 0.4 | 0.3 | 5%
CCOc1ccc(Cl)cc1CNCCc1ccc(F)cc1 | -1.0 | i | 5.2 | 0.64 | -1.5 | -39 | -3%
CCOC(=O)C1(CCc2ccccc2)CCN(C(C)CSC)CC1 (stereo unspecified) | 0.6 | i | . | . | 2.0 | 2.2 | -9%
CCOc1ccc(NC2=NCCCS2)cc1 | -4.4 | i | 3.7 | 0.7 | ? | -0.3 | 7%
COC(=O)C1=C(c2cc3ccccc3s2)C[C@@H]2CC[C@H]1N2C(=O)N1CCC(C)CC1 | -3.9 | i | 5.9 | . | -4.2 | 16 | .
NP(=O)(Oc1ccccc1)Oc1ccccc1 | -4.2 | . | 3.2 | 0.71 | . | -2.2 | -2%
N/C(=N\[N+](=O)[O-])N/N=C/c1ccc(O)cc1 | -2.9 | i | . | . | -3.3 | 0.3 | 5%
Cc1cc(N=Nc2ccccc2C)ccc1N | 2.2 | i | 8.5 | 0.7 | 3.6 | 13 | .
O=C(O)CCn1cc(C=C2C(=O)NC(=O)NC2=O)c(-c2cc3ccccc3oc2=O)n1 | -7.0 | i | 1.2 | 0.68 | 1.2 | -1.1 | 8%
O=c1[nH]c2ccccc2o1 | 4.9 | i | -1.2 | 0.77 | . | -3.3 | 10%
COc1cc(OC)c(OC)cc1CNCCc1ccc(F)cc1 | -0.5 | i | 2.2 | 0.68 | 3.7 | 1.3 | .
CC(C)(C)C(=O)N1Cc2cc(N3CCOCC3)ccc2-n2nncc2C1 | 1.1 | i | . | . | . | -3.4 | .
CN1CCN(/N=C/c2c(O)n(Cc3ccc(F)cc3)c(=O)[nH]c2=O)CC1 | 3.1 | i | 5.2 | 0.69 | 2.2 | -2.7 | -2%
OCCN1C2CCC1CC(O)(c1ccc(F)cc1)C2 (stereo unspecified) | 0.5 | . | 2.8 | 0.72 | -0.2 | . | -5%
COc1ccc(N2C(=O)NC(=O)/C(=C/c3cccc(OC(=O)c4cccs4)c3)C2=O)cc1Cl | . | i | 6.0 | 0.76 | 3.0 | -7.1 | 14%
O=C(Cc1ccccc1)OCn1nnc2ccccc2c1=O | -1.4 | i | -0.2 | 0.65 | 3.8 | -3.3 | 6%
CCCc1nnc(NC(=O)CCC(=O)N2CCN(CCOC(c3ccccc3)c3ccccc3)CC2)s1 | 1.3 | . | 6.0 | 0.7 | 4.9 | . | .
CN1CCN(c2cc(N3CCNCC3)ccc2[N+](=O)[O-])CC1 | -1.5 | . | 13 | 0.69 | ? | . | 1%

More results.
SMILES | HNF4A DNA FP | FGF22 binding | UCH37 DUB inh | Ecoli growth | RanGTP-Imp inh | MLL AF4-AF9 inh | Vif A3G
CCOC(=O)c1c(NC(NC(=O)CF)C(Cl)(Cl)Cl)sc2c1CCCC2 (stereo unspecified) | 1.7 | . | . | . | 0.4 | . | 14%
Cc1csc(NC(=O)C(Cl)c2ccccc2)n1 (stereo unspecified) (tested in a mixture with another compound) | -1.1 | i | 4.3 | 0.65 | -1.4 | -9.8 | .
Cc1cccc(-n2c(C)nc3ccccc3c2=O)c1C | 0.0 | . | 0.8 | 0.71 | 1.3 | -0.1 | 4%
O=P(Oc1ccccc1)(Oc1ccccc1)C(O)c1ccccc1 (stereo unspecified) | 1.5 | i | -0.5 | 0.72 | 0.9 | -6.8 | .
Cc1cc(OCC(=O)OC(C)C)c2c3c(c(=O)oc2c1)CCCC3 | -3.6 | . | -27 | 0.74 | -2.7 | . | -8%
COC(=O)C1=C(c2ccc(F)cc2OCc2ccccc2)C[C@@H]2CC[C@H]1N2C(=O)NCc1cc(C)oc1C(F)(F)F | 5.4 | . | 4.6 | 0.81 | . | . | .
CC1CC(C)CC(C)C(O)C(C#N)=CC=CCC(C2CCCC2C(=O)O)OC(=O)CC(O)C(C)C1 (stereo unspecified) | 6.3 | i | . | . | . | -6.1 | 1%
COc1ccc(-n2c(/C=C3\C(=O)Nc4ccccc43)nc3ccccc3c2=O)cc1 | 0.7 | i | 6.3 | . | -4.2 | -0.2 | .
CCOC(=O)C1=C(C)OC(N)=C(C(=O)OCC)C12C(=O)Nc1ccc(Br)cc12 (stereo unspecified) | 1.1 | . | 2.5 | 0.73 | 0.7 | . | ?
CC(C)N1CCN(Cc2cccc3c2OCO3)CC1CCO (stereo unspecified) | 1.4 | . | 5.8 | 0.68 | 2.2 | 0.4 | -1%
O=P(OCC(F)(F)C(F)F)(N1CCOCC1)N1CCOCC1 | -3.3 | . | 4.6 | 0.74 | -1.0 | . | -1%
O=c1[nH]c(=O)n(-c2cccc(Cl)c2)c(O)c1/C=N/c1ccccn1 | 11 | . | -45 | 0.8 | 3.9 | . | 23%
CC(NCc1ccc(Cl)cc1Cl)C(O)c1ccccc1 (stereo unspecified) | 2.5 | i | 1.7 | 0.63 | ? | -15 | -1%
Cn1c(O)c(C=NCc2ccco2)c(=O)n(C)c1=O | 1.2 | . | 1.9 | 0.69 | -1.4 | . | 4%
COC(=O)C1=C(c2ccc(C(C)=O)cc2)C[C@@H]2CC[C@H]1N2C(=O)N1CCOCC1 | -2.6 | i | 0.0 | . | . | -9.1 | .
COc1ccc2c(c1OC)C(=O)OC2C1c2cc3c(cc2CCN1C)OCO3 (stereo unspecified) | -2.2 | i | 1.1 | 0.63&0.7&0.67 | -2.0 | 1.3 | .
Cc1cc(N2CCN(C)CC2)nc2ccccc12 | 3.8 | i | -5.3 | 0.68 | 0.6 | 2.4 | 0%
O=C1C2CCN(CC2)C1Cc1ccccc1O (stereo unspecified) | . | . | -1.4 | 0.73 | 1.4 | . | 7%
Cc1ccc(NC(=O)N2CC2)cc1NC(=O)N1CC1 | 4.2 | i | 3.0 | 0.67 | . | 1.3 | 3%
CCCCC(CC)COCCCN=Cc1c(O)[nH]c(=S)[nH]c1=O (stereo unspecified) | 12 | i | 5.0 | 0.67 | -0.2 | -0.7 | -9%
O=C(CCNS(=O)(=O)c1ccccc1)Nc1ccc(Cl)cc1C(=O)c1ccccc1 | -0.7 | . | 2.8 | 0.71 | -3.0 | . | 11%
O=C(O)COc1ccccc1/C=C1\C(=O)NC(=O)N(CCC2=CCCCC2)C1=O | -0.8 | i | 16 | 0.69 | ? | 51* | 9%
CC(C)NP(=O)(NC(C)C)OP(=O)(NC(C)C)NC(C)C | 3.1 | i | -3.7 | 0.64 | . | -4.0 | .
CN1CCN(C(=O)Cc2nc3ccccc3[nH]2)CC1 | -0.2 | i | -4.7 | 0.64 | 5.4 | -5.8 | 6%
O=C(NC12CC3CC(CC(C3)C1)C2)OC1CN2CCC1CC2 (stereo unspecified) | -3.1 | i | 3.7 | 0.66 | -3.4 | 4.5 | 2%

Carrying on:
SMILES | HNF4A DNA FP | FGF22 binding | UCH37 DUB inh | Ecoli growth | RanGTP-Imp inh | MLL AF4-AF9 inh | Vif A3G
CCCCCCn1c(=O)c(C(=O)Nc2cccc(C)n2)c(O)c2ccccc21 | 5.5 | . | -20 | 0.67 | 0.4 | . | -2%
CN1C(=O)N(C)C(=O)C(CCc2ccncc2)(CCc2ccncc2)C1=O | 1.2 | i | 2.5 | 0.67 | 4.2 | -0.9 | -1%
Cc1sc2ncn(CC(=O)N3CCC4(CC3)OCCO4)c(=O)c2c1C | 3.3 | . | -0.9 | 0.7 | -1.3 | . | 3%
CC12CCC(=O)C=C1CCC1C2C(O)CC2(C)C(O)CCC12 (stereo unspecified) | 3.8 | i | 3.3 | 0.72 | . | -2.5 | -4%
C[n+]1c2ccccc2nc2ccc(NCCO)cc21 | -1.1 | i | 19 | 0.7 | 6.0 | 5.8 | .
O=C(CN1CCCCC1)c1ccccc1Cl | 1.9 | i | 6.3 | 0.71 | 3.7 | 0.0 | 0%
O=[N+]([O-])c1cccnc1N1CCCNCC1 | 1.2 | i | 5.8 | 0.67 | -3.1 | -2.0 | .
CCc1cccc(CC)c1N(COC)C(=O)CCl | 4.8 | i | 1.6 | 0.68 | . | 2.2 | 0%
N#CCP(=S)(c1ccccc1)c1ccccc1 | -2.4 | i | 4.6 | 0.69 | 4.4 | -4.6 | -2%
COc1cccc(NP(=O)(Oc2ccccc2)Oc2ccccc2)c1 | -2.4 | . | 1.2 | 0.68 | -1.6 | . | -1%
CN1CCC(N(C)c2ncnc3ccc(Br)cc23)CC1 | 0.1 | . | 4.8 | 0.78 | . | . | 1%
COc1cccc(CCNCc2ccc(SC)cc2)c1 | 3.0 | . | 3.9 | 0.67 | -1.0 | . | .
Cc1csc(=N)n1Cc1ccccc1 | -3.0 | . | 0.8 | 0.73 | 4.5 | . | .
Cc1ccc2c(c1)C1CN(C)CCC1N2C(=O)c1cn(-c2ccccc2)nc1-c1ccccc1 (stereo unspecified) | 3.5 | + | 4.3 | 0.66 | 3.4 | 17 | -10%
CN1Cc2ccccc2-n2nncc2C1 | 1.1 | i | . | . | . | -0.8 | -10%
Cc1ccc2c(c1)C1CN(C)CCC1N2C(=O)Cc1cccs1 (stereo unspecified) | 1.1 | i | 2.0 | 0.64 | 4.3 | ? | 24%
Cc1ccc(CN2C(=O)CN=C(c3ccccc3)c3ccccc32)cc1 | 2.2 | i | -0.2 | 0.73 | -2.4 | 0.6 | 4%
O=C(c1cc(C(=O)NCc2ccccc2)c(=O)n(Cc2ccccc2)c1)c1cc(Br)ccc1O | 5.0 | . | 2.1 | 0.72 | 2.2 | . | ?
CC(C)C(=O)N1CCN(CCN=Cc2c(O)n(C)c(=O)n(C)c2=O)CC1 | 0.7 | . | 0.3 | 0.73 | -0.2 | . | 2%
COC(=O)C1=C(c2ccccc2OCc2ccccc2)C[C@@H]2CC[C@H]1N2C(=O)NCc1ccc(F)cc1 | -1.3 | i | 1.1 | . | . | -2.6 | .
Cc1nn(C2CCOC(C)(C)C2)c2c1C(c1ccc3c(c1)OCO3)SCC(=O)N2 (stereo unspecified) | 0.8 | . | 5.1 | 0.7 | 8.0 | . | 0%

Not all compounds are listed, so the mix of outcomes need not match the whole.
